Rango dissoc inh: inhibitors of RanGTP-induced Rango-importin beta complex dissociation. 340,000 tested, 0.071% active. O95149+P62826. Biochemical FRET Rango-importin beta, RanGTP-induced dissociation. Potency, µM (titrated, usually from 46.1 µM), without a hit: at the highest dose activity change, negative = inhibition. AID 540253; active means falling FRET ratio curve, often poorly fitted, with flat reads before Ran was added; inconclusive means other falling curves, or compound fluorescence or quenching; inactive means flat or rising ratio curve;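 further: potency means the concentration at half of the fitted maximal effect; % of control where 0% means no effect; nearly all actives have a fitted effect of over 45% in size; -100% = wells without RanGTP and RCC1; the record marks most hits as doubtful in a second field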
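Quantitative HTS using a FRET biosensor: 0.1 uM Rango, 0.25 uM importin beta, 0.6 uM Ran, 2 mM GTP, 0.2 uM RCC1 final, PBS with DTT, Tween-20 and BSA. Post-read taken 45 min after Ran addition.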
Rango-impB inh: inhibitors of Rango-importin beta complex formation | Q14974 | Rango CFP/YFP FRET sensor + importin beta, 45 min | Potency, µM (highest dose often 92.2 µM), for the others: at the top dose inhibition of complex formation | 340,000 tested, 0.031% active; active = rising FRET ratio curve, often small or poorly fitted; inconclusive = mostly compound fluorescence or quenching in the first reads; inactive = flat curves in all reads;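 further: potency means the concentration at half of the fitted maximal effect; 0% = DMSO wells and 100% = buffer wells lacking importin beta; nearly all actives have a fitted effect of over 15% in size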
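FRET biosensor (snurportin 1 IBB flanked by EYFP and cerulean), 50 nM, with compound 5 min, then 0.125 microM importin beta in PBS, 1 mM DTT, 0.02% Tween-20, 0.1% BSA. CFP/YFP ratio read after 45 min at room temperature; pre-read flags interference.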
GLA inh pH 4.5: alpha-galactosidase A (human) inhibition, pH 4.5. P06280. AID 1467. 230,000 tested, under 10 active. activity change, negative = inhibition, % at 105 µM. purified enzyme, 4-MU-alpha-Gal fluorescence, pH 4.5; inconclusive = small, poorly fitted or top-dose-only inhibition, or a rising curve; inactive = flat fitted curve, though single readings scatter; no compound was filed as active;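 further: 0% = full activity with enzyme and -100% = basal without enzyme; dose as in the result columns while the protocol names 77 µM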
Target sequence (P06280 whole entry, looked up): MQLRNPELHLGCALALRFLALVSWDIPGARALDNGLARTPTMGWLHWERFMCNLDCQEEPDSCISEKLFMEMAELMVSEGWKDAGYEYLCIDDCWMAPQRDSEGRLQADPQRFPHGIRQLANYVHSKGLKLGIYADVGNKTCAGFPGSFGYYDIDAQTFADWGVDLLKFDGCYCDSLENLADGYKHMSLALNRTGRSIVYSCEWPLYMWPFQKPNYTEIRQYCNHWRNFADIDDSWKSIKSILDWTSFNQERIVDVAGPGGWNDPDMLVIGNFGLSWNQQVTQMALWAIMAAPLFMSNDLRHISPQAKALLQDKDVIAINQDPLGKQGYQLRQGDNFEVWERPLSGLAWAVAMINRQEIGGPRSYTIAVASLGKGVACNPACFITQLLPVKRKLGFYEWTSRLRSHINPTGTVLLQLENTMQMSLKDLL
miR-21 FLuc: raises the signal of a miR-21 reporter | HeLa miR-21 FLuc reporter, luciferase, 48 h | Potency, µM (highest dose often 38.3 µM), for the others: at the highest dose reporter change, positive = more light | 340,000 tested, under 10 active | AID 2288; active = well fitted rising curve with a large enough effect; inconclusive = small, poorly fitted or top-dose-only effect; inactive = no such curve, though single readings can be large or run the other way;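 further: % of control where 0% means no effect; miR-21 action dims this reporter so a rising signal means less miR-21 action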
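Compounds were titrated across several concentrations (up to approximately 40 uM) and incubated 48 hours with HeLa miR-21-FLuc reporter cells (miR-21 target sequence downstream of FLuc, endogenous miR-21). Readout was firefly luciferase luminescence after lytic detection reagent.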
Starred values were filed as active, the others as inactive; ? = inconclusive; · = no result given; & = joins results of further samples. These rows are one share of the data (hit frequency here may not be typical).

SMILES | Rango dissoc inh | Rango-impB inh | GLA inh pH 4.5 | miR-21 FLuc
O=C(NCc1cccc(C(F)(F)F)c1)c1cccc2c1C(=O)c1ccc(N3CCC(Cc4ccccc4)CC3)cc1S2(=O)=O | ? | ? | · | ·
CC(C)Cc1oc(C(=O)O)cc1CN1CCOCC1 | 13% | 3.1% | 5 | -1%
Cn1c(CNC(=O)CNS(=O)(=O)c2ccc(Cl)cc2)cc(=O)n(C)c1=O | 0% | -1.4% | · | 1%
COc1ccc(NC(=O)C2CC(c3ccc(Cl)cc3)=NO2)cc1OC (configuration not stated) | -1% | -0.4% | · | -8%
CCN(CC)S(=O)(=O)c1ccc(N2CC(C(=O)N3CCOCC3)CC2=O)cc1 (configuration not stated) | 6% | 2.4% | · | ·
Cn1cc(C(C[N+](=O)[O-])c2ccccc2)c2ccccc21 (configuration not stated) | 9% | -2.6% | · | 19%
O=C(N/C(=C\c1ccccc1Cl)C(=O)N1CCOCC1)c1ccc([N+](=O)[O-])cc1 | 0% | 0.6% | 7 | -1%
O=C1/C(=C\c2ccc3c(c2)OCO3)CCC/C1=C/c1ccc2c(c1)OCO2 | -2% | -2.2% | -6 | -14%
COc1cc(C(=O)NCCOc2cccc3cccnc23)cc(OC)c1OC | -11% | -1.4% | 1 | 20%
COc1ccc(CCN2CC(C(=O)NCCc3cn[nH]c3)CCC2=O)cc1 (configuration not stated) | 1% | 3.5% | · | 3%
Cc1oc(-c2ccccc2Cl)nc1CSCC(=O)NC1CC1 | -3% | 8.4% | 1 | -9%
COC(=O)c1cccc(CSc2nc(-c3ccccc3)c(C#N)c(=O)[nH]2)c1 | 1% | -2.4% | · | 0%
CC(=O)Nc1cccc(C(=O)Nc2ccccc2N2CCOCC2)c1 | -10% | -2.9% | 3 | 23%
Cc1cc(Nc2ccc(F)cc2F)n2ncnc2n1 | 1% | -3.0% | -6 | -12%
CCC(O)(CC)C(=O)NN(C(=O)CCl)c1ccccc1 | -3% | -2.4% | 6 | 16%
Cc1ccc(SCC(=O)N(C)C2CCS(=O)(=O)C2)cc1 (configuration not stated) | 11% | -12% | 4 | 0%
CCOC(=O)C1(Cc2ccc(Cl)cc2)CCN(C(=O)c2sc(C)nc2C)CC1 | -1% | -4.3% | -4 | 25%
CCCc1cc(=O)[nH]c(Nc2ccc3c(c2)OCCO3)n1 | 15% | 1.1% | -2 | -20%
NNC(=O)c1ccccc1OCCOc1ccccc1 | 9% | 2.2% | · | 2%
Cc1cc(C)n(-c2nc(NCCCO)c3c4c(sc3n2)CCCC4)n1 | -19% | 5.2% | 23 | 23%
O=c1[nH]c(SCc2ccccc2Cl)nc2c1CCC2 | 2% | ? | -8 | -7%
Cc1[nH]c(=O)[nH]c(=O)c1/C=C/C(=O)OCC(C)C | 10% | -0.4% | 3 | -18%
CCCc1nnc(NC(=O)CSc2nnc(-c3ccco3)n2C)s1 | 5% | 3.4% | · | 0%
CCCOC(=O)c1c(NC(=O)/C=C/c2cnn(C)c2C)sc(C(=O)OC)c1C | -8% | 6.7% | -4 | -1%
CSc1oc(-c2ccccc2)nc1S(=O)(=O)c1ccc(F)cc1 | 1% | -1.7% | 0 | 4%
CCOC(=O)CNC(=O)Cc1ccc(Cl)cc1 | -6% | 2.8% | -14 | -4%
NC(N)=S | -18% | 3.9% | · | ·
NS(=O)(=O)c1cc(Cl)c(Cl)c(S(N)(=O)=O)c1 | 1% | 0.8% | -1 | ·
O=C(CS(=O)(=O)Cc1ccccc1)N1CCN(Cc2ccc3c(c2)OCO3)CC1 | 8% | ? | 1 | -2%
COc1ccc(CNS(=O)(=O)c2cc3c(cc2Cl)NC(=O)CO3)cc1 | 21% | 0.4% | · | 3%&-3%

Full records from above:
Results for O=C(NCc1cccc(C(F)(F)F)c1)c1cccc2c1C(=O)c1ccc(N3CCC(Cc4ccccc4)CC3)cc1S2(=O)=O : Rango dissoc inh: ?; Rango-impB inh: ?; GLA inh pH 4.5: ·; miR-21 FLuc: ·
Results for CC(=O)Nc1cccc(C(=O)Nc2ccccc2N2CCOCC2)c1 : Rango dissoc inh: -10%; Rango-impB inh: -2.9%; GLA inh pH 4.5: 3; miR-21 FLuc: 23%

(cont.)
SMILES | Rango dissoc inh | Rango-impB inh | GLA inh pH 4.5 | miR-21 FLuc
CCCCCCSc1cc(-c2nc3ccc(C)cn3c2NCc2ccccc2)ccc1OC | ? | ? | · | ·
CCOC(=O)C1CCCN(C(=S)Nc2cc(C)cc(C)c2)C1 (configuration not stated) | 9% | 7.5% | 0 | -2%
Cc1ccc(C(=O)CCC(=O)OC(C)C(=O)NC2CCCCC2C)cc1 (configuration not stated) | 0% | -3.1% | · | ·
Cn1cc(CN2C[C@H]3CC[C@H]2C3)c(-c2ccccc2F)n1 | 0% | -1.6% | -9 | 0%
O=C(O)c1cccc(Nc2ccnc(Nc3cccc(C(=O)O)c3)n2)c1 | -2% | ? | · | -30%
COCCCn1c(=NC(C)=O)c(C#N)cc2c(=O)n3cccc(C)c3nc21 | ? | ? | ? | 2%
COc1cc2[nH]c(=O)n(CCC(=O)N3CCN(Cc4ccc5c(c4)OCO5)CC3)c(=O)c2cc1OC | 8% | 0.5% | ? | 7%
C=CCSc1nc(O)c(CC)c(=O)n1C(C)CC (configuration not stated) | 0% | -5.5% | -1 | 0%
Nn1c(-c2cccc(O)c2)nnc1-c1cccc(O)c1 | -9% | -6.9% | · | ·
O=C(c1ccc(Cl)cc1)c1oc2ccccc2c1CS(=O)c1ccc(Cl)cc1 (configuration not stated) | -5% | 0.0% | -15 | -5%
O=c1onc(-c2ccc(Cl)cc2)n1Cc1ccc(F)cc1 | -1% | 0.4% | 5 | -3%
CC(=O)Oc1ccc2c(c1)OC(c1ccccc1)CC21CC(C)(C)NC(=O)N1 (configuration not stated) | 17% | -2.7% | 4 | -1%
Cc1cccc(N(C)c2cc(C)nc3ncnn23)c1 | -14% | -4.3% | -6 | -1%
O=C(/C=C/c1cccc([N+](=O)[O-])c1)N1CCN(Cc2ccc3c(c2)OCO3)CC1 | 12% | 3.3% | -1 | -1%
O=C(COc1ccc(Cl)cc1Br)N1CCN(c2ccccc2)CC1 | -15% | 1.4% | 4 | -13%

Retrieved by structure from the entries so far (2):
SMILES | Rango dissoc inh | Rango-impB inh | GLA inh pH 4.5 | miR-21 FLuc
O=C(O)c1cccc(Nc2ccnc(Nc3cccc(C(=O)O)c3)n2)c1 | -2% | ? | · | -30%
Cn1c(CNC(=O)CNS(=O)(=O)c2ccc(Cl)cc2)cc(=O)n(C)c1=O | 0% | -1.4% | · | 1%

(list continues)
SMILES | Rango dissoc inh | Rango-impB inh | GLA inh pH 4.5 | miR-21 FLuc
O=C(CSc1nnc(SCc2ccc(F)cc2)s1)Nc1ccc(C(=O)O)cc1 | 9% | -3.2% | 8 | -1%
CC(NS(=O)(=O)c1ccc2[nH]c(=O)c(=O)[nH]c2c1)C(=O)O (configuration not stated) | 2% | -3.7% | -5 | -1%
CC1CN=C(N(C(=S)Nc2ccccc2)c2cccc(C(F)(F)F)c2)S1 (configuration not stated) | -4% | 2.9% | -5 | -22%
Cc1ccc(C(=O)NNC2CC(=O)N(c3ccc4c(c3)OCCO4)C2=O)cc1 (configuration not stated) | -5% | 2.0% | 4 | -5%
CC[C@]12c3[nH]c4cc(CCC(=O)N(C)C)ccc4c3CCN1C(=O)[C@@H](CC(=O)NCCc1ccccn1)C[C@@H]2C(=O)N1CCN(C(=O)C2CC2)CC1 | -6% | 0.8% | · | ·
O=C(c1ccccc1-c1nc(-c2ccccc2)no1)N1CCCC1 | 5% | 1.2% | 1 | -69%
CCn1cc(C(=O)N2CCCC(N3CCN(c4ccccc4C)CC3)C2)cn1 (configuration not stated) | 32% | 5.3% | · | -1%
CCOc1ccc(NC(=O)CC2SC(N)=NC2=O)c([N+](=O)[O-])c1 (configuration not stated) | 1% | -1.0% | 7 | 0%
O=C(Nc1ccccc1)c1ccc(S(=O)(=O)N2CCCC2)cc1 | -14% | 15% | -1 | -22%
O=C1CC(c2ccccc2)CN1C(=O)c1cccnc1 (configuration not stated) | -14% | -3.7% | 8 | 2%
C[C@H](NC(=O)c1[nH]cnc1C(=O)Nc1ccon1)c1ccccc1 | 23% | 1.1% | · | ·
COc1cc(S(=O)(=O)Nc2ccccn2)ccc1F | 1% | 2.9% | 6 | -2%
CCN(CC)c1c(-c2ccccc2)c2cc(C)ccc2[nH]c1=O | 15% | 1.3% | -7 | -5%
CN=C(Nc1ccc(C)c(C)c1)SC1CC(=O)N(c2ccc(OC)cc2)C1=O (configuration not stated) | 15% | -5.8% | -4 | 3%
Cc1ccc(S(=O)(=O)CCC(=O)OCC(=O)N2c3ccccc3NC(=O)C2(C)C)cc1 | 7% | -1.7% | · | ·
O=C1CC(c2ccccc2)Oc2ccccc21 (configuration not stated) | 1% | 1.0% | -1 | ·
C=CCn1c(Cc2cccs2)nnc1SCC(=O)c1ccc2ccccc2c1 | -1% | -4.2% | -6 | -15%
Cc1nnc(NC(=O)c2cc(S(=O)(=O)N(C)C)ccc2N2CCCC2)s1 | ? | 0.1% | · | ·
COc1cccc(CNC(=O)C2CCN(S(=O)(=O)N3CC(C)CC(C)C3)CC2)c1 (configuration not stated) | 12% | -2.2% | 4 | -3%
COc1cc(C(=S)N2CCOCC2)cc(OC)c1OS(=O)(=O)c1ccc(C)cc1 | 1% | -4.4% | · | -5%
CCN(CC)S(=O)(=O)c1ccc(N2CCCCC2)c(NC(=O)C2CCN(C(=O)c3ccc(F)cc3)CC2)c1 | -5% | -2.1% | · | ·
Cc1ccc(C)c(NC(=O)C2CC=CCC2C(=O)O)c1 (configuration not stated) | -8% | 0.2% | -1 | 1%
CCN1CCN(C(=S)c2ccc([N+](=O)[O-])cc2)CC1 | 2% | 0.6% | 2 | -7%
CC1(C)CC(NC(=O)CCc2nnc(CCCCc3ccccc3)o2)CCO1 (configuration not stated) | 8% | 0.2% | 1 | 0%
C=CCN(C1CCCCC1)S(=O)(=O)c1ccc2c(c1)oc(=O)n2C | 4% | 1.6% | -4 | -18%
CC(C)=CCSc1nnc([C@@H](NC(=O)OC(C)(C)C)C(C)C)o1 | 22% | 4.6% | -5 | -8%
CCN(C(=O)CSc1cc(C)c2ccc(OC)cc2n1)C1CCS(=O)(=O)C1 (configuration not stated) | 20% | -4.2% | 5 | -1%
C=CCNS(=O)(=O)c1cccc2cc(C(=O)O)c(O)cc12 | ? | ? | 5 | 0%
FC(F)(F)c1ccccc1/C=N/Nc1ccccn1 | 9% | -2.9% | -3 | -15%
S=C(NCCCCNC(=S)NCc1ccccc1)NCc1ccccc1 | -18% | 1.0% | · | 0%

A few values from the list:
COc1cc(C(=S)N2CCOCC2)cc(OC)c1OS(=O)(=O)c1ccc(C)cc1 in Rango dissoc inh → 1%
CCN(C(=O)CSc1cc(C)c2ccc(OC)cc2n1)C1CCS(=O)(=O)C1 (configuration not stated) in GLA inh pH 4.5 → 5
C=CCN(C1CCCCC1)S(=O)(=O)c1ccc2c(c1)oc(=O)n2C in Rango dissoc inh → 4%
Cc1ccc(C)c(NC(=O)C2CC=CCC2C(=O)O)c1 (configuration not stated) in miR-21 FLuc → 1%
Cc1nnc(NC(=O)c2cc(S(=O)(=O)N(C)C)ccc2N2CCCC2)s1 in Rango-impB inh → 0.1%
FC(F)(F)c1ccccc1/C=N/Nc1ccccn1 in GLA inh pH 4.5 → -3

Other entries follow.
SMILES | Rango dissoc inh | Rango-impB inh | GLA inh pH 4.5 | miR-21 FLuc
CCN(C(=O)COC(=O)c1[nH]c(=O)[nH]c(=O)c1N)c1ccccc1 | -4% | 2.0% | 8 | 3%
O=C(c1ccco1)c1n[nH]nc1-c1ccccc1 | 2% | 1.1% | -3 | -4%
Cc1ccc(C(=O)NCC2CCCN2S(=O)(=O)c2ccc(C)cc2)cc1 (configuration not stated) | -7% | 1.3% | · | ·
O=c1nc2ccccc2c2n1CC(CN1CCN(C(c3ccccc3)c3ccccc3)CC1)N2 (configuration not stated) | 3% | 0.1% | 3 | -1%
O=S(=O)(c1ccc2c(c1)OCO2)N1CCN(c2nnnn2-c2ccccc2)CC1 | 11% | -7.1% | 9 | -4%

From PubChem
